Mtb hypoxia rep: reduces hypoxia-regulated biosensor signal in M. tuberculosis; M. tuberculosis hypoxia-regulated fluorescent reporter, fluorescence; fluorescence inhibition, % (concentration not given with the values); actives 0.1% (n = 300,000);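 active = 35 to 45% if threefold the growth effect, above 45% if 1.5-fold the growth effect; inactive = the rest, general growth blockers included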;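 note: wells of about 50 µL received 100 nL stock; 0% = vehicle wells and 100% = reference inhibitor wells; whole bacteria with a GFP reporter of the hypoxia response; strong numbers were not always called active; many hits fall short of the cut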
ugtP null kill: kills S. aureus RN4220 lacking UgtP. S. aureus RN4220 ugtP deletion, OD600 growth, 16 h; some inactives read as strong as hits. growth inhibition, % (no concentration beside the values). actives 0.54% (n = 330,000). AID 1259309;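 active = z-score under -3 and OD600 up to 0.15 on both plates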;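 note: plate controls were untreated wells for no effect and antibiotic for full effect; wells of about 80 µL received 100 nL stock; the first replicate is given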
RN4220 kill: S. aureus RN4220 growth inhibition; OD600, 16 h; inhibition, % (no concentration beside the values); actives 0.33% (n = 330,000);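 active = z-score of -3 or lower and OD600 up to 0.18 on both plates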;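 note: plate controls were untreated cells for no effect and reference antibiotic for full effect; stock transfer was 100 nL into about 80 µL; one replicate is shown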
BJeLR viability: kills HRASV12-expressing BJeLR cells | AID 1554 | inhibition, % (test concentration not listed) | actives 0.17% (n = 300,000) | BJeLR (HRASV12) viability, CellTiter-Glo ATP luminescence, 48 h; reference of the scale not given here;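 active = replicate mean above 50%; inconclusive = above 50% but judged a plate artefact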;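 note: 50 nL library stock added to about 25 µL; numbers are from one replicate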
Autofluor counter: flagged as autofluorescent in microsphere protease counterscreen; fluorescence intensity (concentration not given with the values); compound autofluorescence counterscreen, microsphere flow cytometry; hits give high values; AID 624483; actives 3.1% (n = 360,000);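 active = at least 3 SD above the mean of all compounds, about 16000 in these data; inconclusive = too few beads counted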;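 note: 100 nL of 1 mM stock went into each well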
PrP UTR inh: suppresses PrP 5' UTR mRNA reporter expression. cell-based PrP 5' UTR mRNA reporter, plate reader. inhibition, % (concentration not given with the values). actives 0.35% (n = 340,000);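 active = every replicate at 50% or more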;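 note: 0 = median of the neutral control wells; tested in H4 reporter cells; numbers are from one replicate; inactives centre near -14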
Mtb hypoxia rep growth: further read-out of Mtb hypoxia rep, marked with its call; growth inhibition, %; measured here: M. tuberculosis growth (absorbance);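 0% = vehicle and 100% = reference antibiotic; read after six days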
An asterisk follows results filed as active; ? = inconclusive; / = not tested or not shown.

Sequence of screens – Mtb hypoxia rep, Mtb hypoxia rep growth, ugtP null kill, RN4220 kill, BJeLR viability, Autofluor counter, PrP UTR inh
CCc1ccc(NC(=O)Cn2cnc3c(=O)n(C)c(=O)n(C)c32)cc1
→ 10, 6, -1, -2.8, 3, 4216, 3
CCOC(=O)N1CCN(C(=O)CCCn2c(=S)[nH]c3ccc(Br)cc3c2=O)CC1
→ 8, 14, 2, 5.1, 4, 20951*, -24
COc1cc([N+](=O)[O-])cc(/C=N/NC(=O)CSc2ccccn2)c1O
→ /, /, /, /, -14, 5038, -8
CCn1c(COc2cc(C)ccc2C(C)C)nnc1SCC(=O)Nc1nccs1
→ 8, 5, 4, -1.0, 6, 4263, -20
CCOc1ccc(NC(=O)CN(C)C(=O)CCCOc2ccc(Cl)c(C)c2)cc1OCC
→ -2, -6, -7, -5.3, 3, 5023, -6
O=S(=O)(c1ccccc1)N1CCN(C(=S)Nc2ccc(Br)cc2)CC1
→ 7, 13, 15, -2.8, /, 6371, -18
CN(C)c1ccc(/C=C2/SC(=O)N(CCN=C3NS(=O)(=O)c4ccccc43)C2=O)cc1
→ /, /, /, /, 1, 2124, -48
CN(CC(=O)Nc1ccccc1N1CCCC1)S(=O)(=O)c1ccc(F)cc1
→ 3, -1, -5, 7.3, 18, 5640, -11
OCCN1CCN(CC#CCC(c2ccccc2)c2ccccc2)CC1
→ 5, 8, 20, 0.7, -7, 6003, -14
COc1ccccc1NC(=O)c1ccc(S(=O)(=O)N2CCOCC2)cc1
→ 4, 5, -5, -1.1, 1, 22270*, -9
Cc1c(C(=O)OCC(=O)N2CC(=O)Nc3ccccc32)oc2ccccc12
→ -12, 7, -2, 2.9, 33, 4076, -17
CCCOc1ccc(-c2c(C(=O)N/N=C/c3ccncc3)nnn2-c2nonc2N)cc1
→ /, /, /, /, -2, 5157, -21
O=S(=O)(c1cccc2nsnc12)N1CCN(C/C=C/c2ccccc2)CC1
→ 13, 8, 28, -7.9, -1, 8995, -5
COCC1CCCN(Cc2cn(Cc3ccccc3)nc2-c2cc3ccccc3o2)C1 (stereo not drawn)
→ 12, 9, 1, 9.8, -8, 4080, -30
CC(C)(C)c1ccc(C(=O)NC(=S)N2CCCCCC2)cc1
→ -1, 10, 9, 0.1, -19, 5310, -27
Cc1ccc(C(=O)Nc2cccc3ccccc23)o1
→ 5, 2, 1, 3.5, -10, 3255, /
COC(=O)C1=C(C)N(Cc2ccccc2)C(=NCCc2ccccn2)N[C@H]1c1cccc(F)c1
→ /, /, /, /, 5, 3042, -25
CCc1ccc(-c2nc(CN3CCC(C(=O)NCCN(CC)c4ccccc4)CC3)c(C)o2)cc1
→ 11, 11, -25, 7.6, 18, 6106, 5
COc1ccc(C)cc1NC(=O)C1CCCN(S(=O)(=O)c2cnc[nH]2)C1 (stereo not drawn)
→ /, /, 5, 1.8, -9, 4033, -3
CC(C)n1c(SCC(=O)c2ccc3c(c2)OCCO3)nc2c1c(=O)n(C)c(=O)n2C
→ 2, 10, 0, 6.0, -6, /, /
C(=N\Nc1nc2ccccc2[nH]1)/c1cccc2cccnc12
→ /, /, /, /, 42, 5952, -3
O=C(O)c1cc(S(=O)(=O)NCc2ccco2)c(Cl)cc1Cl
→ 4, 4, 2, 7.7, 1, 3066, -29
Cc1ccc(S(=O)(=O)N2CCC(C(=O)Nc3nnc(C)s3)CC2)cc1
→ 1, 2, 6, 2.9, -8, 3893, -19
O=[N+]([O-])c1ccc(S(=O)(=O)N2CCN(c3ccc(N4CCOCC4)nn3)CC2)cc1
→ 0, 6, -9, 4.8, 1, 4279, 12
CC(CC(=O)Nc1ccc(Cl)cc1Cl)=NNC(=O)c1cnccn1
→ 7, 10, 0, 5.5, /, /, /
COc1ccc(CCn2c(O)c(C=Nc3cccc(F)c3)c(=O)[nH]c2=O)cc1OC
→ 5, 15, -5, 1.1, 5, 4205, /
Cc1cccc(NC(=O)C2(C)CC3c4ccccc4C2c2ccccc23)c1 (stereo not drawn)
→ 11, 4, 2, -18, 1, 2842, -13
CCOc1ccccc1-c1cc(C(=O)N/N=C/c2ccc(O)c(OC)c2)c2ccccc2n1
→ /, /, /, /, -12, 1895, -28
C=CCN1C(=O)N(c2ccc(Cl)cc2)C(=O)C1CC(=O)Nc1ccc(F)cc1 (stereo not drawn)
→ -4, 16, 2, 0.2, -4, 4265, -28
COc1ccc(CCNC(=O)C(=O)NCC2CCCN2S(=O)(=O)c2ccccc2)cc1OC (stereo not drawn)
→ -1, 1, 2, 4.4, -4, /, 1

Brought forward from above: 5 compounds, followed by the next part.
Sequence of screens – Mtb hypoxia rep, Mtb hypoxia rep growth, ugtP null kill, RN4220 kill, BJeLR viability, Autofluor counter, PrP UTR inh
COc1ccc(CCn2c(O)c(C=Nc3cccc(F)c3)c(=O)[nH]c2=O)cc1OC
→ 5, 15, -5, 1.1, 5, 4205, /
Cc1cccc(NC(=O)C2(C)CC3c4ccccc4C2c2ccccc23)c1 (stereo not drawn)
→ 11, 4, 2, -18, 1, 2842, -13
CCOc1ccccc1-c1cc(C(=O)N/N=C/c2ccc(O)c(OC)c2)c2ccccc2n1
→ /, /, /, /, -12, 1895, -28
C=CCN1C(=O)N(c2ccc(Cl)cc2)C(=O)C1CC(=O)Nc1ccc(F)cc1 (stereo not drawn)
→ -4, 16, 2, 0.2, -4, 4265, -28
COc1ccc(CCNC(=O)C(=O)NCC2CCCN2S(=O)(=O)c2ccccc2)cc1OC (stereo not drawn)
→ -1, 1, 2, 4.4, -4, /, 1
CC(=O)c1ccc(-n2nnnc2SCC(=O)N2CCc3ccccc3C2)cc1
→ /, /, /, /, -1, 2833, -18
O=C(COC(=O)CCCCCN=C1NS(=O)(=O)c2ccccc21)Nc1ccc(Cl)c(Cl)c1
→ -2, 5, 36, -9.6, -3, 2483, -22
CC(=Nn1cnnc1)c1cccnc1
→ -1, -1, -2, -2.0, /, /, /
CCOC(=O)Cc1ccc2sc(-c3ccccc3)nc2c1
→ 6, 5, 47, 7.9, 9, 1991, -130
O=C(c1cccnc1NCc1ccc(F)cc1)N1CCOCC1
→ /, /, 3, 4.9, 1, 2113, -14
CCOc1ccc(S(=O)(=O)N2CCC(C(=O)NC3CC3)CC2)cc1C
→ 9, 6, 5, 2.1, 3, 5522, -12
CCC(=O)N/N=C/c1ccc(-c2ccc([N+](=O)[O-])cc2)o1
→ /, /, /, /, -3, 3492, -23
Cc1ccc(S(=O)(=O)Nc2cc(C(=O)N3CCC4(CC3)OCCO4)ccc2N2CCCCC2)cc1
→ 1, -2, 7, 12, 1, 2839, -8
COc1ccc(C)cc1NC(=O)C(OC(=O)c1cnccn1)c1ccccc1 (stereo not drawn)
→ 10, 6, 4, 3.7, -5, /, -23
COc1ccc(C2NC(=O)NC(C)=C2C(=O)OC2CCC(C)CC2)cc1 (stereo not drawn)
→ -1, -1, -3, 0.7, -1, 3576, -6
CCOc1ccc(CC(C(N)=O)C(N)=O)cc1CN(C)C
→ /, /, 11, 4.3, 10, 3578, 2
COc1ccc(-c2cn(N=Cc3ccc(Cl)cc3Cl)c(N)n2)cc1
→ 5, 0, -1, -10, /, /, /
CC1CCCCC12NC(=S)N(c1ccccc1)N2 (stereo not drawn)
→ /, /, /, /, -11, 3773, -15
COc1ccc(N2CCN(C(=O)CCC(=O)N3Cc4ccccc4Oc4ncccc43)CC2)cc1
→ 4, -4, 13, 1.1, -3, 4634, 13
CN1CCN(c2ccccc2NC(=O)c2ccc(OCc3ccccc3)cc2)CC1
→ /, /, -2, -9.6, /, 4086, -6
Cc1ccc(NC(=S)/N=C(\N)Nc2nc(C)c3ccccc3n2)cc1C
→ 6, 0, -2, 7.6, 2, 2234, -20
Cc1ccc(C)c(OCC(=O)N2CCN(Cc3ccc4c(c3)OCO4)CC2)c1
→ 2, 10, 7, 5.0, 9, 3959, -15
Cc1cccc(NS(=O)(=O)c2ccc([N+](=O)[O-])cc2)n1
→ 4, -2, 3, 3.9, 2, 3128, -20
CCN(CC)S(=O)(=O)c1ccc(OC)c(NC(=O)c2cc([N+](=O)[O-])ccc2Cl)c1
→ /, /, 4, 0.2, -7, 4311, -34
COc1ccc(NC(=O)CN(C)S(=O)(=O)c2cnc[nH]2)cc1Cl
→ 15, 2, 1, 1.1, 4, 5038, -1
COc1ccc2oc(C(=O)NCc3ccco3)c(C)c2c1
→ 6, 1, 17, 7.2, 9, 4349, -45
CCCCCCCC(=O)NN=C(C)c1c(O)cc(C)oc1=O
→ 0, 4, 2, 4.9, /, /, /
COc1ccc(NC(=O)CSc2nncc(=O)n2N)cc1OC
→ 10, 15, 5, 3.0, -9, /, -34
O=C(CN1CCN(c2ccccc2F)CC1)Nc1nnc(C(F)(F)F)s1
→ 5, 2, 5, 5.4, 0, 4619, -15
CC(C)(CO)N=Cc1c(O)[nH]c2ccccc12
→ 5, 8, -16, 0.5, -3, ?, -10
COc1ccc(CN2C=C3C(=O)C(C)(OC(=O)CCc4ccccc4)C(=O)C=C3C=C2c2ccc(C#N)cc2)cc1 (stereo not drawn)
→ 17, 8, 7, 0.9, 8, 3554, -2
COc1cccc(NC(=S)/C(=C(\[O-])c2ccc([N+](=O)[O-])cc2)[n+]2ccccc2)c1
→ -2, 18, -11, 0.4, 4, 4612, 0
CCSC1=C(C#N)C(c2ccc(Cl)cc2)C2=C(CCCC2=O)N1 (stereo not drawn)
→ 0, -13, -6, 4.6, 5, 15173, -10
Cc1ccc(-c2cc(C(=O)n3cnc4ccccc43)c3ccccc3n2)cc1C
→ /, /, -6, 8.5, 1, 4830, -26
COc1ccc2sc(N3C(=O)CC(Cc4cccc(C)c4)C3=O)nc2c1 (stereo not drawn)
→ 2, 12, 16, -1.3, 1, 9747, -11

2 entries from above, as labelled records.
> O=C(CN1CCN(c2ccccc2F)CC1)Nc1nnc(C(F)(F)F)s1
- Mtb hypoxia rep = 5
- Mtb hypoxia rep growth = 2
- ugtP null kill = 5
- RN4220 kill = 5.4
- BJeLR viability = 0
- Autofluor counter = 4619
- PrP UTR inh = -15
> O=C(c1cccnc1NCc1ccc(F)cc1)N1CCOCC1
- Mtb hypoxia rep = /
- Mtb hypoxia rep growth = /
- ugtP null kill = 3
- RN4220 kill = 4.9
- BJeLR viability = 1
- Autofluor counter = 2113
- PrP UTR inh = -14

Next section:
Sequence of screens – Mtb hypoxia rep, Mtb hypoxia rep growth, ugtP null kill, RN4220 kill, BJeLR viability, Autofluor counter, PrP UTR inh
COc1ccc(CCN(Cc2cc3ccc(C)cc3n3nnnc23)C(C)=O)cc1OC
→ -4, 13, 13, 5.4, -1, 4846, 5
COc1ccc(C(=O)Nc2sc3c(c2C#N)CCN(C(C)=O)C3)cc1
→ 8, 5, 2, 3.0, 1, 2222, -17
CC/C(=N/O)C(=O)c1ccc(Br)cc1
→ /, /, /, /, 2, 2516, -15
Oc1ccc(N2CCN(Cc3ccc(OCCCN4CCCCC4)cc3)CC2)cc1
→ 8, -3, 0, 2.7, -3, 5173, -10
CC(=O)N(Cc1ccco1)C1(C(=O)NC2CCCC2)CCCCC1
→ 7, 10, 5, 3.8, 1, 8295, -16
Cc1ccsc1C(=O)Nc1nc2ccccc2[nH]1
→ /, /, /, /, 28, 4521, -117
CCCCn1c(O)c(/C=C2\C=NN=C2c2ccccc2)sc1=S
→ 3, -5, 27, -19, -7, 10526, -26
CC(C)N1CCN(S(=O)(=O)c2ccccc2)CC1
→ -1, -14, 7, 0.0, -3, 3151, -18
Cc1ccc(S(=O)(=O)Nc2ccccc2F)cc1C(=O)OC(C)C(=O)N1CCOCC1 (stereo not drawn)
→ -1, 1, -5, 1.7, -12, 4582, 6
CC1(C)CC(=O)c2c(O)c(-c3ccccc3)c(=O)n(-c3ccccc3)c2C1
→ -1, -1, 2, -0.6, -6, 2594, -17
Cc1nn(C(C)C(=O)NCc2cccs2)c(C)c1[N+](=O)[O-] (stereo not drawn)
→ 3, 7, 7, 3.4, 21, 4346, -12
O=C(COC(=O)C1(c2ccc(Cl)cc2)CCCC1)NC1CCS(=O)(=O)C1 (stereo not drawn)
→ /, /, -1, -2.9, -4, 4003, -1
Cc1ccc(C=NNC(=O)C2CC(=O)N(c3ccccc3)C2)o1 (stereo not drawn)
→ -11, 6, 1, -2.6, /, /, /
Clc1cc(NC2CCCCC2)ncn1
→ 15, 0, 2, 2.3, -4, 3699, -13
CCN(CC)c1ccc(C(=S)NCc2ccccc2)cc1
→ 5, 9, 18, 1.2, 15, 3443, -13
CC(NC(=O)CN(c1ccc(F)cc1)S(C)(=O)=O)c1ccccc1 (stereo not drawn)
→ -2, 2, -3, -4.2, 1, 4175, -10

Compound activity: PubChem BioAssay, several laboratories
